M5 ag = CHRM5 agonism in calcium assay; P08912; CHO-K1 hM5 cells, Fluo-8 calcium fluorescence; 0% DMSO wells, 100% maximal acetylcholine response; activation, % at 3 µM; hit rate 0.19% among 360,000;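 active means activation above the run's mean over test compounds plus 3 SD, cut at about 23% in these data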;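 further: signal is peak over basal fluorescence ratio across the kinetic read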
M4 PAM = CHRM4 positive allosteric modulation; AID 624126; CHO-K1 hM4/Gqi5, Fluo-8 calcium fluorescence, ACh EC20; 0% = ACh EC20, 100% = maximal ACh; P08173; hit rate 0.4% among 360,000; activation, % at 3 µM;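 active means activation above its plate's cutoff, the mean activation of sample wells plus 3 SD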; further: some results filed as inactive read as strong as hits
Target sequence (P08173 whole entry, looked up): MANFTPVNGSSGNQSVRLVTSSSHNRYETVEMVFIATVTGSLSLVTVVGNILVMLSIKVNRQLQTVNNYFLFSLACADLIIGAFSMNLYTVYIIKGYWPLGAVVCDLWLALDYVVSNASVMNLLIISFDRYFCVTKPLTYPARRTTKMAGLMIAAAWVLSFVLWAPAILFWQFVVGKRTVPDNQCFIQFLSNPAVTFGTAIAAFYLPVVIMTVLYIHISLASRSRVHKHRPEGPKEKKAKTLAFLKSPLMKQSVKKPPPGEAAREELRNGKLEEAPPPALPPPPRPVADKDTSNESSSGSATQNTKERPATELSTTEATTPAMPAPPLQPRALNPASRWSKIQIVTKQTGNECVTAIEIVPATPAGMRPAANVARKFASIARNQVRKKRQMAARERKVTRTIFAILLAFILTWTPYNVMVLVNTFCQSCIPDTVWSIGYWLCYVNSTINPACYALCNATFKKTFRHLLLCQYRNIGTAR
CHRM5 antagonist = blocks acetylcholine activation of human M5 receptor; hit rate 0.59% among 360,000; AID 624040; CHO-hM5 cells, Fluo-8 calcium fluorescence, ACh EC80; inhibition, % at 3 µM; P08912;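 active means inhibition above a per-plate cutoff, the mean of that plate's test compounds plus 3 SD, cut at about 27% in these data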;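 further: 0% = acetylcholine EC80 with DMSO and 100% = DMSO without agonist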
M4 antag = blocks acetylcholine activation of human M4 receptor | P08173 | CHO-hM4 cells, ACh EC80, Fluo-8 calcium fluorescence | inhibition, % at 3 µM | hit rate 0.73% among 360,000;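 active means inhibition above its plate's cutoff, the mean inhibition of sample wells plus 3 SD, cut at about 27% in these data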;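 further: 0% = acetylcholine EC80 with DMSO and 100% = DMSO without agonist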
M5 PAM = potentiates acetylcholine response at human M5 receptor. CHO-K1 hM5, Fluo-8 calcium, ACh EC20 PAM; 0% = ACh EC20, 100% = ACh EC100. P08912. hit rate 0.3% among 360,000. activation, % at 3 µM;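 active means activation above the run cutoff, the mean activation of all test compounds plus 3 SD, cut at about 18% in these data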
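Probe or stimulus: acetylcholine, EC20 level; Assay system: human M5 receptor in CHO-K1 cells; Schedule: compound preincubation 140 s before EC20 acetylcholine addition; Technique: intracellular calcium via Fluo-8 fluorescence; Dosing: single-point, 3 µM nominal; Read-out basis: percent activation from peak-over-basal fluorescence ratio, scaled EC20-to-EC100 acetylcholine; Repeats: one well per compound, no replicates.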
An asterisk follows results filed as active; & = joins results of further samples.

CN(C)CCn1cnc2ccccc21 was read as M5 ag -10.9, M4 PAM -0.1, CHRM5 antagonist -0.9, M4 antag -4.6 and M5 PAM 7.2.
Screening C[C@]12CCC3[C@@H](CC[C@H]4C[C@@H](O)CC[C@]34C)C1CCC2=O (some centres not stated) returned M5 ag 0.9, M4 PAM -8.8, CHRM5 antagonist 19.6, M4 antag 2.8 and M5 PAM -2.6.
C[C@H]1C[C@@H](C)C(=O)[C@@H]([C@H](O)CC2CC(=O)NC(=O)C2)C1 was read as M5 ag 0.3, M4 PAM 0.5, CHRM5 antagonist 6.7, M4 antag 1.5 and M5 PAM -7.0.
C=CCN1CC[C@]23c4c5ccc(O)c4OC2C(=O)CC[C@@]3(O)C1C5 (some centres not stated) was read as M5 ag 0.4, M4 PAM 0.2, CHRM5 antagonist -2.6, M4 antag -5.4 and M5 PAM -0.7.
For C=CCN1CC[C@]23c4c5ccc(O)c4O[C@H]2C(=O)CC[C@@]3(O)[C@H]1C5 the results were M5 ag 1.6&0.2, M4 PAM 4.8&-4.9, CHRM5 antagonist 0.5&0.0, M4 antag -2.9&-14.4 and M5 PAM -3.5&-4.8.
For C[C@]12CC[C@H](O)CC1=CC[C@@H]1[C@@H]2CC[C@]2(C)C(=O)CC[C@@H]12 the results were M5 ag 4.2, M4 PAM -3.6, CHRM5 antagonist 3.2, M4 antag 3.2 and M5 PAM -6.0.
`N#C[C@H](O[C@@H]1O[C@H](CO[C@@H]2O[C@H](CO)[C@@H](O)[C@H](O)[C@H]2O)[C@@H](O)[C@H](O)[C@H]1O)c1ccccc1` gave M5 ag -2.2, M4 PAM 5.8, CHRM5 antagonist 4.6, M4 antag -13.3 and M5 PAM 2.4.
For O=P1(NCCCl)OCCCN1CCCl (configuration not stated) the results were M5 ag 2.0, M4 PAM 2.4, CHRM5 antagonist -2.4, M4 antag -2.2 and M5 PAM 4.5.
For COc1ccc2c(c1)[C@]13CCCCC1C(C2)N(C)CC3 (some centres not stated) the results were M5 ag -5.5, M4 PAM 6.2, CHRM5 antagonist -1.6, M4 antag -6.0 and M5 PAM 2.8.
For C[C@]12CC[C@@H](O)C[C@@H]1CC[C@@H]1[C@@H]2CC[C@]2(C)C(=O)CC[C@@H]12 the results were M5 ag 3.6, M4 PAM -9.4, CHRM5 antagonist -3.5, M4 antag -33.4 and M5 PAM -10.4.
For NC(=O)CN1CCCC1=O the results were M5 ag -0.5, M4 PAM 8.3, CHRM5 antagonist -7.4, M4 antag -2.9 and M5 PAM -3.1.
N#CC(C#N)=Cc1ccc(O)c(O)c1 was read as M5 ag 0.6, M4 PAM 6.7, CHRM5 antagonist -3.2, M4 antag -13.7 and M5 PAM 0.8.
CC[C@@H](CO)NC(=O)[C@@H]1C=C2c3cccc4c3c(cn4C)C[C@H]2N(C)C1 was read as M5 ag 0.8&1.1, M4 PAM -4.0&0.3, CHRM5 antagonist 2.5&2.6, M4 antag 2.2&-9.4 and M5 PAM -3.9&-0.6.
For c1ccc2c(c1)cc1ccc3cccc4ccc2c1c34 the results were M5 ag 7.8, M4 PAM 2.6, CHRM5 antagonist 5.5, M4 antag 13.3 and M5 PAM -6.9.
For O=[N+]([O-])c1ccccc1Cl the results were M5 ag 3.5, M4 PAM 3.1, CHRM5 antagonist 2.9, M4 antag -13.2 and M5 PAM -1.8.

Reprinted from the entries so far for reference:
For O=P1(NCCCl)OCCCN1CCCl (configuration not stated) the results were M5 ag 2.0, M4 PAM 2.4, CHRM5 antagonist -2.4, M4 antag -2.2 and M5 PAM 4.5.
For COc1ccc2c(c1)[C@]13CCCCC1C(C2)N(C)CC3 (some centres not stated) the results were M5 ag -5.5, M4 PAM 6.2, CHRM5 antagonist -1.6, M4 antag -6.0 and M5 PAM 2.8.
For C[C@]12CC[C@@H](O)C[C@@H]1CC[C@@H]1[C@@H]2CC[C@]2(C)C(=O)CC[C@@H]12 the results were M5 ag 3.6, M4 PAM -9.4, CHRM5 antagonist -3.5, M4 antag -33.4 and M5 PAM -10.4.
For NC(=O)CN1CCCC1=O the results were M5 ag -0.5, M4 PAM 8.3, CHRM5 antagonist -7.4, M4 antag -2.9 and M5 PAM -3.1.
N#CC(C#N)=Cc1ccc(O)c(O)c1 was read as M5 ag 0.6, M4 PAM 6.7, CHRM5 antagonist -3.2, M4 antag -13.7 and M5 PAM 0.8.
CC[C@@H](CO)NC(=O)[C@@H]1C=C2c3cccc4c3c(cn4C)C[C@H]2N(C)C1 was read as M5 ag 0.8&1.1, M4 PAM -4.0&0.3, CHRM5 antagonist 2.5&2.6, M4 antag 2.2&-9.4 and M5 PAM -3.9&-0.6.
For c1ccc2c(c1)cc1ccc3cccc4ccc2c1c34 the results were M5 ag 7.8, M4 PAM 2.6, CHRM5 antagonist 5.5, M4 antag 13.3 and M5 PAM -6.9.
For O=[N+]([O-])c1ccccc1Cl the results were M5 ag 3.5, M4 PAM 3.1, CHRM5 antagonist 2.9, M4 antag -13.2 and M5 PAM -1.8.

High-throughput results (PubChem BioAssay)

Only part of the results is shown. The share of hits here may be higher or lower than overall.
